A1 apoptosis 2: A1 inhibitors via caspase activation, primary screen, cell-based, luminescence, HTS, two replicates | AID 2465, 2010 | MEF A1-2A-BIM cells, caspase-Glo luminescence, 3 h; percent of clofoctol response, DMSO zero | caspase activation, % (no concentration beside the values) | 24,000 tested, under 10 active; in the data active = caspase activation above about 5.9%;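 also: wells of about 30 µL received 50 nL stock; the first replicate is given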
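Evaluation: Caspase-3/7 activity from luminescence increase | Assay system: A1-2A-BIM mouse embryonic fibroblasts | Quantity: 2500 MEF cells/well | Medium: RPMI-1640 plus 10% FBS | Detection: Caspase-Glo 3/7 luminescence, 1 h at room temperature | Dosing: 50 nL compound per well, pinned | Timing: Cells settled overnight, compound exposure 3 h at 37 °C, 5% CO2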
* = called active by the depositor. Some of the compounds tested; rates above refer to the full screens.

Molecule | A1 apoptosis 2
COc1cc(CO)cc(I)c1O[C@H]1C=C(C(=O)NCCO)C[C@@H](N(C(=O)c2cc3ccccc3oc2=O)C2CCCCCC2)[C@@H]1O | -0.7
C[C@H]1CN([C@@H](C)CO)C(=O)Cc2cc(N(C)C)ccc2O[C@@H]1CN(C)S(=O)(=O)c1ccc(F)cc1 | -1.0
C[C@H](CO)N1C[C@H](C)[C@@H](CN(C)S(=O)(=O)c2cccs2)Oc2c(NC(=O)C3CC3)cccc2C1=O | -0.4
C[C@@H]1CCCCO[C@@H](CN(C)S(=O)(=O)c2cn(C)cn2)[C@H](C)CN([C@H](C)CO)C(=O)c2cc(NS(C)(=O)=O)ccc2O1 | 0.4
C[C@H]1CN([C@@H](C)CO)C(=O)c2cccc(NS(=O)(=O)c3ccc(Cl)cc3)c2O[C@H]1CN(C)S(=O)(=O)c1cccs1 | 0.5
COc1ccc(CN(C)C[C@H]2Oc3ccc(NS(=O)(=O)c4ccccc4)cc3CC(=O)N([C@H](C)CO)C[C@@H]2C)cc1 | -0.4
COc1ccc(NC(=O)Nc2ccc3c(c2)C(=O)N([C@@H](C)CO)C[C@@H](C)[C@H](CN(C)C(=O)CCC(F)(F)F)OCCCC[C@@H](C)O3)cc1 | -0.3
C[C@@H]1CN([C@@H](C)CO)C(=O)c2cc(NS(=O)(=O)c3cn(C)cn3)ccc2O[C@H]1CN(C)C(=O)Nc1ccccc1 | 0.0
O=C(NCc1nc2ccccc2[nH]1)C1=C[C@H](C2CC2)C[C@H](OCCCCO)O1 | 0.1
Cc1ccc(S(=O)(=O)Nc2ccc3c(c2)C(=O)N([C@@H](C)CO)C[C@@H](C)[C@@H](CN(C)Cc2ccncc2)O3)cc1 | 0.4
C[C@@H]1CN([C@H](C)CO)C(=O)c2cccc(N(C)C)c2O[C@H]1CN(C)C(=O)Nc1ccc(F)cc1 | -0.7
CC(C)NC(=O)N(C)C[C@H]1OCCCC[C@@H](C)Oc2ccc(NC(=O)CCC(F)(F)F)cc2C(=O)N([C@@H](C)CO)C[C@H]1C | 1.0
COc1ccc(S(=O)(=O)Nc2cccc3c2O[C@@H](CN(C)Cc2ccc(C(=O)Nc4ccccc4N)cc2)[C@@H](C)CN([C@H](C)CO)C3=O)cc1 | -1.0
COC(=O)[C@]1(CCC(=O)OC(C)(C)C)N=C(c2ccc(OCCCO)cc2)O[C@@H]1c1ccccc1 | -0.8
Cc1ccc(S(=O)(=O)N(C)C[C@H]2Oc3ccc(NC(=O)Nc4ccc5c(c4)OCO5)cc3C(=O)N([C@@H](C)CO)C[C@H]2C)cc1 | 0.4
C[C@@H]1CCCCO[C@@H](CN(C)C(=O)Cc2ccccc2)[C@H](C)CN([C@H](C)CO)C(=O)c2cc(NS(=O)(=O)c3cccs3)ccc2O1 | 0.7
C[C@@H]1CN([C@@H](C)CO)C(=O)Cc2cc(NC(=O)Nc3ccc(F)cc3)ccc2O[C@H]1CN(C)C | 0.1
C[C@H]1CN([C@@H](C)CO)C(=O)c2cc(N(C)C)ccc2O[C@@H]1CN(C)Cc1ccc2c(c1)OCO2 | -1.3
COc1ccc(S(=O)(=O)Nc2ccc3c(c2)CC(=O)N([C@@H](C)CO)C[C@H](C)[C@H](CN(C)Cc2ccc(C(F)(F)F)cc2)O3)cc1 | 0.9
C[C@@H]1CCCCO[C@@H](CN(C)CC2CCCCC2)[C@H](C)CN([C@@H](C)CO)C(=O)c2cc(NC(=O)Nc3ccccc3)ccc2O1 | 0.2
COc1ccc(S(=O)(=O)Nc2ccc3c(c2)C(=O)N([C@H](C)CO)C[C@@H](C)[C@H](CN(C)Cc2ccc(-c4ccccc4)cc2)O3)cc1 | 0.1
COc1ccc(S(=O)(=O)N(C)C[C@@H]2Oc3ccc(NC(=O)Nc4ccccc4)cc3CC(=O)N([C@@H](C)CO)C[C@@H]2C)cc1 | 0.2
Cc1noc(C)c1NC(=O)Nc1ccc2c(c1)C(=O)N([C@H](C)CO)C[C@@H](C)[C@@H](CN(C)S(=O)(=O)c1ccc(F)cc1)O2 | 1.5
C[C@H](CO)N1C[C@H](C)[C@@H](CN(C)Cc2ccc3c(c2)OCO3)Oc2ccc(NC(=O)CCC(F)(F)F)cc2CC1=O | -0.1
C[C@@H]1CN([C@H](C)CO)C(=O)c2cc(NS(=O)(=O)c3cn(C)cn3)ccc2O[C@@H](C)CCCCO[C@H]1CN(C)S(=O)(=O)c1cn(C)cn1 | 0.7
CNC[C@@H]1Oc2ccc(NC(=O)Cn3cnnn3)cc2CC(=O)N([C@H](C)CO)C[C@H]1C | -0.9
C[C@H]1CN([C@@H](C)CO)C(=O)CCCn2nncc2CO[C@H]1CN(C)C(=O)Nc1ccc(C(F)(F)F)cc1 | -0.4
COc1ccc(S(=O)(=O)Nc2cccc3c2O[C@@H](CN(C)C(=O)Nc2ccc4c(c2)OCO4)[C@@H](C)CN([C@H](C)CO)C3=O)cc1 | 2.0
Cc1cc(C(=O)Nc2cccc3c2O[C@@H](CN(C)Cc2ccc(Cl)c(Cl)c2)[C@H](C)CN([C@@H](C)CO)C3=O)n(C)n1 | -1.2
C[C@@H]1CCCCO[C@@H](CN(C)Cc2ccccc2)[C@@H](C)CN([C@H](C)CO)C(=O)c2cc(NS(=O)(=O)c3cccs3)ccc2O1 | -0.2

The last five records of the part above are carried over, then new ones follow.
Molecule | A1 apoptosis 2
CNC[C@@H]1Oc2ccc(NC(=O)Cn3cnnn3)cc2CC(=O)N([C@H](C)CO)C[C@H]1C | -0.9
C[C@H]1CN([C@@H](C)CO)C(=O)CCCn2nncc2CO[C@H]1CN(C)C(=O)Nc1ccc(C(F)(F)F)cc1 | -0.4
COc1ccc(S(=O)(=O)Nc2cccc3c2O[C@@H](CN(C)C(=O)Nc2ccc4c(c2)OCO4)[C@@H](C)CN([C@H](C)CO)C3=O)cc1 | 2.0
Cc1cc(C(=O)Nc2cccc3c2O[C@@H](CN(C)Cc2ccc(Cl)c(Cl)c2)[C@H](C)CN([C@@H](C)CO)C3=O)n(C)n1 | -1.2
C[C@@H]1CCCCO[C@@H](CN(C)Cc2ccccc2)[C@@H](C)CN([C@H](C)CO)C(=O)c2cc(NS(=O)(=O)c3cccs3)ccc2O1 | -0.2
CC(C)NC(=O)N(C)C[C@H]1Oc2c(NC(=O)Nc3ccc(C(F)(F)F)cc3)cccc2C(=O)N([C@H](C)CO)C[C@H]1C | 0.6
Cc1noc(C)c1S(=O)(=O)Nc1ccc2c(c1)CC(=O)N([C@H](C)CO)C[C@H](C)[C@@H](CN(C)S(=O)(=O)c1ccccc1)O2 | 0.1
C[C@@H]1CN([C@@H](C)CO)C(=O)c2cccc(NC(=O)C3CC3)c2O[C@H]1CN(C)S(=O)(=O)c1cccs1 | 0.6
C[C@@H]1CN([C@@H](C)CO)C(=O)c2cc(NC(=O)CCC(F)(F)F)ccc2O[C@@H]1CN(C)Cc1ccc(C(=O)Nc2ccccc2N)cc1 | 0.2
COc1ccc(S(=O)(=O)Nc2ccc3c(c2)C(=O)N([C@H](C)CO)C[C@H](C)[C@@H](CN(C)Cc2ccc(C(=O)O)cc2)OCCCC[C@H](C)O3)cc1 | -1.0
C[C@@H]1CN([C@@H](C)CO)C(=O)c2cccc(NC(=O)c3ccc(-c4nccs4)cc3)c2O[C@@H]1CN(C)Cc1ccc(Oc2ccccc2)cc1 | -0.7
COc1ccc(S(=O)(=O)N(C)C[C@@H]2Oc3ccc(NS(=O)(=O)c4ccc(C)cc4)cc3C(=O)N([C@H](C)CO)C[C@H]2C)cc1 | -0.4
Cc1noc(C)c1NC(=O)Nc1cccc2c1O[C@@H](CN(C)Cc1ccc3c(c1)OCO3)[C@@H](C)CN([C@H](C)CO)C2=O | 0.0
C[C@@H]1CN([C@H](C)CO)C(=O)c2cc(NS(=O)(=O)c3cccs3)ccc2O[C@@H]1CN(C)Cc1ccc(-c2ccccc2)cc1 | -0.7
COc1ccc(CN(C)C[C@@H]2Oc3ccc(NC(=O)Cc4cn(C)c5ccccc45)cc3CC(=O)N([C@@H](C)CO)C[C@@H]2C)cc1 | -0.2
C[C@@H]1CCCCO[C@H](CN(C)S(=O)(=O)c2ccc(F)cc2)[C@H](C)CN([C@@H](C)CO)C(=O)c2cc(N(C)C)ccc2O1 | 0.9
C[C@H]1CN([C@@H](C)CO)C(=O)c2cc(NC(=O)NC3CCCCC3)ccc2O[C@H]1CN(C)Cc1ccc2c(c1)OCO2 | -0.2
CNC[C@H]1OCCCC[C@@H](C)Oc2ccc(N(C)C)cc2C(=O)N([C@H](C)CO)C[C@H]1C | 0.3
CC1=C(SCCO)C(=O)c2ccccc2C1=O | -1.3
C[C@@H]1CCCCO[C@H](CN(C)Cc2ccncc2)[C@@H](C)CN([C@H](C)CO)C(=O)c2cc(NC(=O)CCCCCC(=O)Nc3ccccc3N)ccc2O1 | 1.1
C[C@H](CO)N1C[C@H](C)[C@H](CN(C)S(=O)(=O)c2ccc(Cl)cc2)Oc2ccc(NC(=O)CCCCCC(=O)Nc3ccccc3N)cc2C1=O | 0.8
CNC[C@@H]1Oc2c(NC(=O)c3ccncc3)cccc2C(=O)N([C@H](C)CO)C[C@@H]1C | -0.3
COc1ccc(CN(C)C[C@H]2OCCCC[C@H](C)Oc3ccc(NC(=O)C4CCCCC4)cc3C(=O)N([C@H](C)CO)C[C@@H]2C)cc1 | 0.3
C[C@@H]1CN([C@@H](C)CO)C(=O)c2cccc(NS(=O)(=O)c3ccc(Cl)cc3)c2O[C@@H]1CN(C)S(=O)(=O)c1ccc(F)cc1 | -0.6
Cc1noc(C)c1NC(=O)N(C)C[C@@H]1Oc2ccc(NS(=O)(=O)c3ccc(Cl)cc3)cc2CC(=O)N([C@@H](C)CO)C[C@H]1C | 1.4

2 entries from above, set out differently:
> COc1ccc(S(=O)(=O)N(C)C[C@@H]2Oc3ccc(NC(=O)Nc4ccccc4)cc3CC(=O)N([C@@H](C)CO)C[C@@H]2C)cc1
  A1 apoptosis 2: 0.2
> COc1ccc(S(=O)(=O)Nc2cccc3c2O[C@@H](CN(C)Cc2ccc(C(=O)Nc4ccccc4N)cc2)[C@@H](C)CN([C@H](C)CO)C3=O)cc1
  A1 apoptosis 2: -1.0

Additional entries follow.
Molecule | A1 apoptosis 2
Cc1noc(C)c1NC(=O)Nc1ccc2c(c1)CC(=O)N([C@H](C)CO)C[C@H](C)[C@H](CN(C)S(=O)(=O)c1cccs1)O2 | -1.0
C[C@@H]1CN([C@@H](C)CO)C(=O)c2cc(NC(=O)Nc3ccccc3)ccc2O[C@@H](C)CCCCO[C@H]1CN(C)CC1CCCCC1 | -1.1
CNC[C@H]1Oc2c(NC(=O)c3cnccn3)cccc2C(=O)N([C@@H](C)CO)C[C@@H]1C | 1.5
COc1ccc(CN(C)C[C@H]2Oc3ccc(NC(=O)Nc4ccc(F)cc4)cc3CC(=O)N([C@H](C)CO)C[C@H]2C)cc1 | -1.1
Cc1noc(C)c1S(=O)(=O)Nc1ccc2c(c1)C(=O)N([C@H](C)CO)C[C@H](C)[C@@H](CN(C)CC1CC1)OCCCC[C@@H](C)O2 | 0.0
C[C@H]1CN([C@@H](C)CO)C(=O)c2cccc(NC(=O)c3cnccn3)c2O[C@H]1CN(C)C(=O)Nc1ccc(F)cc1 | -1.1
C[C@@H]1CN([C@H](C)CO)C(=O)c2cccc(NS(C)(=O)=O)c2O[C@@H]1CN(C)Cc1ccc2c(c1)OCO2 | -0.7
C[C@@H]1CCCCO[C@H](CN(C)C(=O)Nc2ccc(C(F)(F)F)cc2)[C@H](C)CN([C@H](C)CO)C(=O)c2cc(NC(=O)Nc3ccc(C(F)(F)F)cc3)ccc2O1 | -0.1
COc1ccc(CN(C)C[C@H]2Oc3ccc(NS(=O)(=O)c4ccc(C)cc4)cc3CC(=O)N([C@@H](C)CO)C[C@H]2C)cc1 | -1.0
C[C@H](CO)N1C[C@H](C)[C@H](CN(C)C(=O)Nc2ccc3c(c2)OCO3)Oc2ncc(-c3ccccc3)cc2C1=O | 0.9
C[C@H]1CN([C@@H](C)CO)C(=O)c2cccc(NC(=O)Nc3ccccc3)c2O[C@@H]1CN(C)S(=O)(=O)c1ccc(F)cc1 | 1.1
C[C@H](CO)N1C[C@H](C)[C@H](CN(C)C(=O)Nc2ccccc2)Oc2ncc(-c3ccccc3)cc2C1=O | -0.4
COc1ccc(NC(=O)Nc2ccc3c(c2)C(=O)N([C@H](C)CO)C[C@H](C)[C@@H](CN(C)C(=O)c2ccccc2)OCCCC[C@@H](C)O3)cc1 | 0.3
C#Cc1ccc([C@H]2C=C(C(=O)Nc3ccccc3)O[C@@H](OCCCCO)C2)cc1 | -0.5
C[C@H]1CN([C@@H](C)CO)C(=O)c2cc(NS(=O)(=O)c3ccc(Cl)cc3)ccc2O[C@H]1CN(C)S(C)(=O)=O | 1.0
C[C@H]1CN([C@@H](C)CO)C(=O)Cc2cc(NS(=O)(=O)c3ccc(Cl)cc3)ccc2O[C@@H]1CN(C)C(=O)Nc1ccccc1 | 0.4
C[C@@H]1CCCCO[C@@H](CN(C)S(=O)(=O)c2cn(C)cn2)[C@@H](C)CN([C@H](C)CO)C(=O)c2cc(NS(=O)(=O)c3cn(C)cn3)ccc2O1 | 0.2
C[C@H]1CN([C@@H](C)CO)C(=O)c2cccc(NS(C)(=O)=O)c2O[C@@H]1CN(C)Cc1ccc(Oc2ccccc2)cc1 | 0.7
C[C@H](CO)N1C[C@H](C)[C@@H](CN(C)C(=O)c2ccncc2)OCc2cnnn2CCCC1=O | -1.0
C[C@H](CO)N1C[C@H](C)[C@@H](CN(C)Cc2ccc(C(=O)O)cc2)Oc2c(NC(=O)C3CCOCC3)cccc2C1=O | -0.8
CC(C)NC(=O)N(C)C[C@@H]1OCCCC[C@H](C)Oc2ccc(NS(=O)(=O)c3cn(C)cn3)cc2C(=O)N([C@H](C)CO)C[C@@H]1C | -1.9
COC(=O)[C@H](Cc1ccccc1)N1C(=O)O[C@H](Cc2ccccc2)[C@@H]1/C=C/C1CC1 | -0.1
O=C(N/N=C/c1ccc(Br)cc1)c1ccccn1 | -11

Screening results (PubChem BioAssay)
